Screening data: PubChem BioAssay, National Center for Advancing Translational Sciences (NCATS)
TRPML1 ag: qHTS for Agonists of the Human Mucolipin Transient Receptor Potential 1 (TRPML1); activation, % (test concentration not listed); hit rate 0.12% among 410,000; TRPML1-expressing cells, Ca2+ dye fluorescence, FDSS; host cell line not named in the record; reference of the full effect not given here; Mucolipin-1 (Homo sapiens), Q9GZU1; AID 624414, 2012; in the data active = activation above about 50%; inconclusive = about 30% to 50%; inactive = below about 30%; also: 0% is about no effect; the text of the record puts the active cut at 80%
Target sequence (Q9GZU1 whole entry, looked up): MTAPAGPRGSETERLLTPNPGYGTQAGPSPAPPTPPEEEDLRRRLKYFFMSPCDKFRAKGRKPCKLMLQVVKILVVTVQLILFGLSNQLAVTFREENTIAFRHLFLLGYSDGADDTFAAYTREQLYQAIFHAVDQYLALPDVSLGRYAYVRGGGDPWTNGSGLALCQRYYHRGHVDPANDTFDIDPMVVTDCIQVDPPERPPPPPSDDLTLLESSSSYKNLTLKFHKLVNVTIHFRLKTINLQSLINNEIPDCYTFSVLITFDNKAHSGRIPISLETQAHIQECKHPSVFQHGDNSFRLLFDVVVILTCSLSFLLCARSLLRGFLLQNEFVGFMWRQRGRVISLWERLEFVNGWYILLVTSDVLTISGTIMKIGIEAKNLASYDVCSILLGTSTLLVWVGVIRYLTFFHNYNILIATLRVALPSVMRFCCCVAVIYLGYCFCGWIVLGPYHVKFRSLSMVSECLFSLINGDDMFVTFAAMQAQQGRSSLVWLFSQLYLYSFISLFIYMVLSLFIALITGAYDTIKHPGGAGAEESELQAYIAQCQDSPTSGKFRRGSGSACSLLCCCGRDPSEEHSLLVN
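TRPML1-DL cells, Tet-induced overnight (~16 h, 37 degrees C), loaded 45-90 min at room temperature with Ca8 no-wash calcium dye plus quencher. FDSS fluorescence: 10 s baseline, compound pin-transfer, 110 s agonist read, then EC80 54-4 (4uM final) and 110 s antagonist read.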
D2 PAM: Beta-Arrestin HTS for Positive Allosteric Modulators of the Human D2 Dopamine Receptor: Potentiators | DiscoveRx D2 beta-arrestin cells, luminescence, 90 min; 100% = 57 uM dopamine signal | potentiation, % (test concentration not listed) | hit rate 0.23% among 360,000; active = potentiation of 50% or more; inconclusive = 30% to 50%; inactive = 30% or less;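 also: compound concentration not given in the record; tested on top of an EC20 dose of dopamine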
Target sequence (P14416 whole entry, looked up): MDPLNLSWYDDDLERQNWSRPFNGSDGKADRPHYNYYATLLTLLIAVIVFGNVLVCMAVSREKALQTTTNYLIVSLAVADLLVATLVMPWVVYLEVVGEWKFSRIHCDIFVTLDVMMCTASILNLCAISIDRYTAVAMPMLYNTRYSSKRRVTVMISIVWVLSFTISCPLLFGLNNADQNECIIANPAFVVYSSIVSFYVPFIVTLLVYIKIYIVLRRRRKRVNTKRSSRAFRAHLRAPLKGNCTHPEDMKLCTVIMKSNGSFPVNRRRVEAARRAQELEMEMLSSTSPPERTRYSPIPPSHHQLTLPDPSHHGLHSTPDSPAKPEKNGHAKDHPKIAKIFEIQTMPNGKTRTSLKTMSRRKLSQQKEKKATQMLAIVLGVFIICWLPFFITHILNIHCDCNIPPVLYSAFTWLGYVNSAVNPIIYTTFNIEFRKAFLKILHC
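PathHunter beta-arrestin assay in DiscoveRx D2 cells. Compounds were added with an EC20 of dopamine (50 nM final) for 90 min at 37 deg C. Luminescence was read 1 h after detection reagent, with 57 uM dopamine as the EC100 control.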
Six1-Eya2 inh: qHTS Assay for Inhibitors of the Six1/Eya2 Interaction; Homeobox protein SIX1 (Homo sapiens) + Protein phosphatase EYA2 (Homo sapiens), …; AlphaScreen GST-Six1/His-Eya2 binding, biochemical; hits give low values; control for the full effect not named in the record; activity change, % (concentration not given with the values); hit rate 0.56% among 360,000; AID 651725, 2012; in the data active = activity change below about -65%; inconclusive = about -30% to -65%; inactive = above about -30%; also: % is scaled to controls: 0 for no effect and ±100 for the full control effect
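GST-Six1 + His-Eya2 (5X stock: 250/500 nM); Tris pH 8.0, 300 mM NaCl, 0.05% BSA, 0.02% Tween 20; GSH donor/Ni acceptor beads; 1 h 37 °C dark; AlphaScreen readout.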
TRPML1 blocker: qHTS for Inhibitors of the Human Mucolipin Transient Receptor Potential 1 (TRPML1) | Mucolipin-1 (Homo sapiens), Q9GZU1 | AID 624415, 2012 | TRPML1-inducible cells, Ca2+ dye fluorescence, FDSS; hits give low values; inhibition of EC80 agonist-evoked calcium signal | hit rate 0.02% among 390,000 | activity change, negative = inhibition, % (concentration not given with the values); in the data active means activity change below about -50%; inconclusive means about -30% to -50%; inactive means above about -30%;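 also: stimulus is agonist 54-4 at its EC80 concentration; % is scaled to controls: 0 for no effect and ±100 for the full control effect; compound concentration not given in the record; the text of the record puts the active cut at -80%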
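TRPML1-DL cells, Tet-induced overnight (~16 h, 37 °C) at 1,500 cells/well, were loaded with Ca8 no-wash dye plus quencher for 45-90 min at room temperature. Compounds were pinned during FDSS kinetic reading; agonist 54-4 at EC80 (4 uM final) then added.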
D2 ag: Beta-Arrestin HTS for Positive Allosteric Modulators of the Human D2 Dopamine Receptor: Agonists. D(2) dopamine receptor (Homo sapiens), P14416. DiscoveRx PathHunter D2 beta-arrestin, luminescence, 90 min; 100% = 57 uM dopamine signal. activation, % (no concentration beside the values). hit rate 0.084% among 360,000. AID 624465, 2012; in the data active = activation above about 40%; inconclusive = about 15% to 40%; inactive = below about 15%; also: compound concentration not given in the record; the text of the record calls up to 30% inactive
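DiscoveRx PathHunter D2 beta-arrestin cells (2,100/well) attached overnight, then compound-stimulated 90 min at 37 C in HBSS/10 mM HEPES/0.1% Tween-20 buffer; beta-galactosidase complementation read by luminescence after 1 h at ambient temperature. Dopamine 57 uM final (EC100) as control.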
PINK1 expr mod: A Quantitative High throughput Screen to Identify Chemical Modulators of PINK1 Expression. PINK1 immunofluorescence, high-content cytometry, 24 h. Potency, µM (series often up to 76.6 µM), for the others: top-dose activation (PINK1 increase), hits mostly activators. hit rate 0.2% among 410,000. AID 624263, 2012; active = well fitted activation curve with a large enough effect; inconclusive = small, poorly fitted or top-dose-only effect; inactive = flat fitted curve, though single readings scatter; cell line not stated here;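 also: potency is read from the fitted curve at half-maximal effect; % of control where 0% means no effect; nearly all actives have a fitted effect of over 65% in size; a mitochondrial uncoupler was the plate control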
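Readout is PINK1 immunofluorescence, quantified alongside mitochondrial, cell and nuclear markers by laser-scanning microplate cytometry. Cells from a stable line were exposed to compound titrations (5 concentrations) for 24 hours, with CCCP controls.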
An asterisk follows results filed as active; ? = inconclusive; · = no result given; & = joins results of further samples; [ ] = dose if it differs, or a comment.

SMILES	TRPML1 ag	D2 PAM	Six1-Eya2 inh	TRPML1 blocker	D2 ag	PINK1 expr mod
COCCCNC(=O)C[C@H]1C[C@H](C(=O)N2CCOCC2)[C@@]2(C)c3[nH]c4cc(-c5ccco5)ccc4c3CCN2C1=O	-0.5	-4	-1	-2	-1.8	1.5%
O=C(N/N=C/C1CC2C=CC1C2)c1ccccc1O (stereo unspecified)	0.0	-10	-1	13	-3.6	0.9%
Cc1cc(C)cc(NC(=S)N2CCC(NC(=O)c3ccco3)CC2)c1	-0.4	-5	-2	44	-4.2	0.3%
COc1ccc2[nH]c(C)c(CCNC(=S)Nc3ccc(F)cc3)c2c1	0.8	-6	-9	-7	-5.8	5.3%
COc1cccc(C(=O)/C=C/c2ccc(SC)cc2)c1	0.0	-1	-3	2	-2.9	11%[38.3 µM]
Nc1nnnn1/N=C/c1cc(Cl)cc(Cl)c1O	18	-4	-20	12	4.5	0.3%
O=C(NCc1cccs1)c1ccc2c(c1)sc1nc(-c3ccc(F)cc3)cn12	0.5	·	·	10	·	9.2%
COc1cccc(Cn2cnc3c([N+](=O)[O-])c(C)c(C)cc32)c1	0.2	-7	1	5	-0.2	-1.3%
CSC(=N/N=C(\N)c1cnccn1)SC	1.4	11	-5	2	1.9	2.5%
O=[N+]([O-])c1ccc2nonc2c1Nc1cccc(F)c1	·	17	?	·	?	-1.0%
CCc1cccc(C)c1NC(=O)C1CCN(C(=O)c2ccc([N+](=O)[O-])cc2)CC1	-0.1	1	7	-13	0.0	1.0%
CCCCN(CCCC)CCNC(=O)c1cn(C)c2ccc(S(=O)(=O)N3CCOCC3)cc2c1=O	-0.5	·	·	36	·	0.6%
CC(=O)Nc1cccc(NC(=S)Nc2cccc(Cl)c2Cl)c1	-0.4	-13	-7	6	-6.5	0.2%
COc1cccc(C(=O)Oc2cc(C)[nH]c(=O)c2[N+](=O)[O-])c1	-0.8	1	5	-5	8.5	3.3%
CC(C)(C)C(=O)Nc1nc(-c2ccc3c(c2)OCO3)cs1	0.1	-18	-11	-9	-2.7	1.8%

Gathered by group: those above containing two or more sulfur atoms (2)
SMILES	TRPML1 ag	D2 PAM	Six1-Eya2 inh	TRPML1 blocker	D2 ag	PINK1 expr mod
O=C(NCc1cccs1)c1ccc2c(c1)sc1nc(-c3ccc(F)cc3)cn12	0.5	·	·	10	·	9.2%
CSC(=N/N=C(\N)c1cnccn1)SC	1.4	11	-5	2	1.9	2.5%

Next part:
SMILES	TRPML1 ag	D2 PAM	Six1-Eya2 inh	TRPML1 blocker	D2 ag	PINK1 expr mod
C=CCn1cnc2c(nnn2-c2ccc(C)c(Cl)c2)c1=O	-1.2	0	1	4	-2.5	4.4%
CCOC(=O)c1ccc(NC(=O)CSc2nnc(COc3ccccc3OC)n2CC)cc1	-0.3	-13	-4	-7	-0.2	7.6%
CCOC(=O)c1c(Nc2cccc(O)c2)nnc(-c2ccccc2)c1-c1ccccc1	3.1	·	·	13	·	-5.6%
O=C(NCc1cccc(Cl)c1)NCc1cccc(Cl)c1	1.7	-7	12	43	0.4	4.4%
Cn1nnnc1SCC(=O)Nc1cccc([N+](=O)[O-])c1	-1.0	-2	2	-11	-5.6	0.4%
COc1ccc(Nc2nc(NCC3CCCO3)c3ccccc3n2)c(OC)c1 (stereo unspecified)	0.8	-24	-12	24	-2.3	12%
COc1cccc(NC(=O)c2ccccc2-c2nc(-c3cccc(C)c3)no2)c1	0.6	-11	-2	-6	-1.0	-0.1%
Cc1ccc(C(=O)COC(=O)c2ccccc2N2C(=O)C3C4CCC(C4)C3C2=O)cc1C (stereo unspecified)	-0.3	7	0	-2	-3.2	0.6%[38.3 µM]
CCC(C)N1CCCCC1C(=O)Nc1c(C)cc(C)cc1C (stereo unspecified)	3.7	-19	2	19	-0.8	1.0%[38.3 µM]
CC(=O)c1sc(Nc2ccc3c(c2)OCO3)nc1C	-0.5	-7	0	·	-4.2	0.7%
CN1CCN(CC(=O)Nc2ccc(OC(F)(F)F)cc2)CC1	-0.9	-2	1	-11	0.4	1.0%
Cc1ccc(-n2c(Cc3ccccc3)n[nH]c2=S)c(C)c1	0.6	-24	7	0	-14	-1.6%
CCCCn1c(-c2ccccc2)cnc1SCC(=O)NCCc1ccc(OC)c(OC)c1	0.6	-7	-20	-6	0.1	-2.8%[38.3 µM]
Cc1ccc(Nc2nc(CSc3nnnn3-c3ccccc3)cc(=O)[nH]2)cc1	2.0	-5	-11	10	-1.0	?
O=C(CSCc1c[nH]c(=O)[nH]c1=O)OCC(=O)c1ccc(Br)cc1	0.9	-12	11	-9	-9.3	-0.1%
CC(C)(C)C(=O)Nc1nnc(SCC(=O)Nc2nccs2)s1	0.4	-11	6	-6	-2.9	?
Cc1cccc(-c2nnc(SCc3nc4ccccc4[nH]3)n2Cc2ccco2)c1	0.9	-21	-11	5	-3.0	0.4%
CCCCn1c(SCC(=O)N(C)C)nnc1-c1ccncc1	-1.1	-5	1	7	-6.7	-0.8%
CC(=O)Nc1cc2c3c(c1)CCC(=O)N3CCC2	-0.3	-10	-1	4	-0.8	-1.4%
O=C(O)CCCNc1n[nH]c(=O)[nH]c1=O	-0.6	3	1	-15	0.3	0.1%
Cn1nnnc1SCCNCc1cc(Br)ccc1OCc1ccccc1Cl	5.3	·	·	83	·	19%
CC(Sc1nnc(-c2cccs2)n1C1CC1)C(=O)NCC1CCCO1 (stereo unspecified)	1.5	-12	1	20	4.6	0.8%
CC(C)(C)c1ccc(C(=O)NCC(=O)NCC(C)(C)N2CCOCC2)cc1	0.8	-27	0	2	-6.7	-0.4%
COc1ccc(-c2nnc(OCc3nc4ccccc4n3C)c3ccccc23)cc1	0.4	-5	-18	-9	-10	-0.6%
Cc1onc(-c2c(Cl)cccc2Cl)c1C(=O)NN1CCCCCC1	-0.2	-1	0	-8	3.4	1.4%
COc1cc(NC(=O)c2nc3cc(C)c(C)cc3n(C)c2=O)cc(OC)c1OC	-0.5	·	·	20	·	8.1%
CCN(CC)CCNC(=O)c1cccc(NC(=O)C(=O)c2cc(Br)ccc2NC(C)=O)c1	-0.9	-37	8	-14	-2.2	-0.3%
CCC(=O)N(Cc1cc2cc(OC)ccc2[nH]c1=O)c1ccccc1OC	-0.1	-9	4	1	0.6	1.9%
COc1ccc(C/C(C)=N/NS(=O)(=O)c2ccc(Br)cc2)cc1	·	-5	-2	·	-21	0.3%
CCCCN(CC)CCCNC(=O)CN1C(=O)CSc2ccc(S(=O)(=O)N3CCOCC3)cc21	0.5&-0.2	-8	6	3&-9	4.2	-2.1%&-0.4%
CC(=O)N1CCC(C(=O)Nc2ccc(S(=O)(=O)NCCc3ccccc3)cc2)CC1	0.0	-21	17	-5	1.3	3.3%
C[C@H](Nc1ncnc2sc3c(c12)CCC3)C(=O)O	-0.7	8	-2	-14	-2.3	-0.9%
CC1CC(N(C(=O)c2ccco2)c2ccccc2)c2ccccc2N1 (stereo unspecified)	2.3	-4	-21	32	-3.9	-1.0%
COc1ccc(CCNC(=O)Cc2cc(=O)[nH]c(=O)[nH]2)cc1OC	0.0	-5	2	4	-3.5	0.6%
Cc1ccc(C(=O)NCC(=O)OCC(=O)c2c(N)n(C)c(=O)n(C)c2=O)cc1C	0.1	-13	-6	-20	-5.3	0.3%
O=C(NCCc1ccccc1)c1cc2ccccc2oc1=O	1.1	-3	6	1	-2.6	0.2%
COc1ccc(C(CNC(=O)COc2cc(C)c(Cl)c(C)c2)N2CCCCC2)cc1 (stereo unspecified)	0.3&-1.0	-47	-11	17&0	-2.5	?
COc1ccc(OC)c(S(=O)(=O)n2cccn2)c1	0.4	-18	-10	3	-1.7	-0.8%
COCC(=O)N(Cc1cc2cc(OC)ccc2[nH]c1=O)c1ccc(C)cc1	0.5	-18	5	-11	0.0	-0.8%
O=C(CN1C(=O)CNC1=O)Nc1cc(Cl)cc(Cl)c1	0.6	-5	11	0	-0.2	-0.5%
COc1cccc(C2C(C(=O)Nc3ccc(Cl)cc3)=C(C)Nc3c(C(=O)Nc4ccccc4)cnn32)c1OC (stereo unspecified)	3.2	·	·	-28	·	-1.0%
CCNc1nc(NC(C)C)nc(N(C#N)C(C)C(=O)N(C)C)n1 (stereo unspecified)	-0.1	11	5	-9	1.4	-0.4%
CCOc1cc(C(c2c(C)[nH][nH]c2=O)c2c(C)[nH][nH]c2=O)cc(Cl)c1O	·	-6	-13	·	-3.1	2.1%
Cc1cc(C)c(C#N)c(SCC(=O)c2ccc(Cl)cc2Cl)n1	-0.2	10	20	10	5.2	?
CC(=O)Nc1ccc(S(=O)(=O)N2CCN(c3ccccn3)CC2)cc1	-0.2	0	1	-4	-1.3	1.7%[38.3 µM]
COc1cc(NC(C)CCCN)c2ncccc2c1 (stereo unspecified)	-0.2	-3	2	2	7.4	1.7%
CSc1ccc(CCNC(=O)c2ccc(-c3nc(COc4ccc(C)cc4)c(C)o3)cc2)cc1	-0.3	·	·	-8	·	0.8%
COc1cc(/C=N/NC(=O)NC2CCCCC2)ccc1O	0.5	-8	-19	-12	1.1	-0.9%
CC(C)C(=O)N(c1cc2sc(=O)oc2c2ccccc12)S(=O)(=O)c1cccs1	0.4	75*	?	-4	?	?
O=C1Cc2cc([N+](=O)[O-])ccc2N1c1c(Cl)cccc1Cl	0.1	0	-25	4	-2.9	-0.2%
CCCCN(CC)C(=S)Nc1ccc2nc(N3CCN(C)CC3)cc(C)c2c1	0.4	-19	-8	62	-4.0	6.2%
CCN(CC)S(=O)(=O)c1cccc(NC(=O)COC(=O)c2[nH]c(C)c(C(C)=O)c2C)c1	0.2	-8	-5	1	0.3	-0.8%
COc1ccc(CNC(=O)C2CC(C)=CCC2C(=O)O)cc1 (stereo unspecified)	·	-4	8	·	-6.4	2.4%
Cc1cc2oc(=O)cc(CN3CCOCC3)c2cc1O	-0.5	3	-8	10	-4.2	1.9%
COc1ccc(CNC(=O)CCc2c(C)c3ccc(OC)c(C)c3oc2=O)cc1OC	-1.2	·	·	-14	·	3.4%
O=C(Nc1ccc(Oc2cccc(C(F)(F)F)c2)nc1)c1ccco1	-0.2	0	5	-11	1.6	7.4%
CC1(C(=O)Nc2cnc3ccccc3c2)CCN1C(=O)C/C=C/c1ccccc1 (stereo unspecified)	1.5	-9	-10	7	3.9	0.5%
